Marburg entry inh: blocks Marburg virus binding to or entry into cells. Marburg virus pseudotyped entry inhibition, cell reporter; control for the full effect not named in the record; about a third of the inactives were read at about 46 µM. Potency, µM (doses to about 37.8 µM), without a hit: at the highest dose activity change, negative = inhibition, hits mostly inhibitors. 300,000 compounds, 1.8% hits; active = well fitted inhibition curve with a large enough effect; inconclusive = small, poorly fitted or top-dose-only effect, or effect the other way; inactive = flat fitted curve, though single readings scatter; tested in HEK293 cells; about a fifth of its hits are not listed in these tables; note: % is set by controls: 0 for no effect and ±100 for the full control effect; luciferase read-out
Cruzain inh Det: inhibitors of Trypanosoma cruzi cruzain with detergent; purified cruzain, Z-FR-AMC fluorescence, 0.01% Triton; 200,000 compounds, 0.43% hits; Potency, µM, for inactives: max response, negative = inhibition, hits mostly inhibitors; AID 1478; active = well fitted curve in the direction sought with a large enough effect; inconclusive = small, poorly fitted or top-dose-only effect, or another doubt; inactive = no such curve, though single readings can be large; an effect the other way counts as inactive or inconclusive;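 note: plate controls were neutral wells for no effect and buffer without enzyme for full effect; nearly all actives have a fitted effect of over 40% in size; top concentration of the series not given in the record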
Target sequence (P25779 123-467 limits assumed): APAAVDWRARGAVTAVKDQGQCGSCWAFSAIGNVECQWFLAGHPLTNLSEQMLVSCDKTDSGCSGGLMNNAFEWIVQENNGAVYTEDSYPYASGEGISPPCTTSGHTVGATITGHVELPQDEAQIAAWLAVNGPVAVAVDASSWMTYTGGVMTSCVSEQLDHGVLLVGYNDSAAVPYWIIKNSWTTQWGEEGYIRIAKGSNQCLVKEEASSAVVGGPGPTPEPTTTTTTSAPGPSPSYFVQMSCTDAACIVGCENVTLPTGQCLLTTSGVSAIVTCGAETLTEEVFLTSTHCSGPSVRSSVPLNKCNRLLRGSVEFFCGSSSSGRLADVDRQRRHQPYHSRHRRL
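In this qHTS format, compounds are incubated with 1.5 nM cruzain for 15 min at room temperature before 2 uM Z-FR-AMC is added. Release of AMC is followed at 360/450 nm, and progress is taken as the 60 s fluorescence difference.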
SARS PLP yeast: blocks SARS-CoV papain-like protease in a yeast assay; S. cerevisiae expressing SARS-CoV PLpro, growth rescue; control for the full effect not named in the record; Potency, µM (top dose mostly 32.9 µM), for inactives: at the highest dose activity, positive = growth rescue; 330,000 compounds, 0.19% hits; AID 485353; note: 0% is about no effect; nearly all actives have a fitted effect of over 55% in size; growth read by luminescence after 48 h
2A StopGo: lowers the luciferase signal of an FMDV 2A StopGo reporter. human cells with a luciferase reporter of 2A StopGo recoding; control for the full effect not named in the record. Potency, µM (series often up to 57.9 µM), for inactives: at the top dose signal change, negative = less light. 410,000 compounds, 1.2% hits; active = well fitted falling curve with a large enough effect; inconclusive = small, poorly fitted or top-dose-only effect; inactive = no such curve, though single readings can be large or run the other way; tested in HEK293T cells; note: % is set by controls: 0 for no effect and ±100 for the full control effect; nearly all actives have a fitted effect of over 45% in size; luciferase light after 4 h
RE007 growth inh: less growth of the S. pombe RE007 Vpr strain; Potency, µM (titrated, usually from 92.2 µM), inactives show top-dose activity change, negative = less growth; AID 651644; 360,000 compounds, 0.21% hits; S. pombe RE007 Vpr strain, BacTiter-Glo ATP luminescence, 24 h; control for the full effect not named in the record; active = well fitted falling curve with a large enough effect; inconclusive = small, poorly fitted or top-dose-only effect; inactive = no such curve, though single readings can be large or run the other way;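 note: % is set by controls: 0 for no effect and ±100 for the full control effect; nearly all actives have a fitted effect of over 50% in size; the assay follows cell death caused by Vpr and the record does not say whether a fall means rescue or toxicity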
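Fission yeast RE007 carrying one integrated HIV-1 vpr copy, seeded at OD 0.01 in PMG+AL medium with 23 nL pinned compound. Grown 24 h at 30 degrees; viability read by BacTiter-Glo luminescence after 5 min.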
NS1 function inh: blocks influenza NS1 protein function; 270,000 compounds, 0.4% hits; Potency, µM (top dose mostly 46.1 µM), for inactives: top-dose activity, positive = more growth; S. cerevisiae slowed by influenza A NS1, growth recovery by OD600; AID 2326; note: actives are rising curves; nearly all actives have a fitted effect of over 50% in size
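OD600 was taken as the measure of yeast growth restored by compound in an NS1-expressing S. cerevisiae strain. Cells had been washed out of glucose medium and diluted 1:100 into galactose -URA medium, pH 6.0.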
Cruzain noTriton: blocks cruzain activity in detergent-free assay | 200,000 compounds, 2.3% hits | Potency, µM, for inactives: max response, negative = inhibition, usual class: inhibitors | purified cruzain, Z-FR-AMC fluorescence, no detergent | P25779; active = well fitted curve in the direction sought with a large enough effect; inconclusive = small, poorly fitted or top-dose-only effect, or another doubt; inactive = no such curve, though single readings can be large; an effect the other way counts as inactive or inconclusive;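 note: plate controls were enzyme without inhibitor for no effect and buffer without enzyme for full effect; nearly all actives have a fitted effect of over 40% in size; top concentration of the series not given in the record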
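Detergent-free condition (0.00005% Triton X-100) in acetate buffer pH 5.5 with DTT. 1.5 nM enzyme and compound were pre-mixed 15 min, then 2 uM Z-FR-AMC substrate added; reaction progress from fluorescence change between first and third reads (60 s).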
LASV entry inh: Lassa virus entry inhibition | Lassa virus pseudotype entry inhibition, cell reporter; control for the full effect not named in the record | Potency, µM (doses to about 37.9 µM), without a hit: top-dose activity change, negative = inhibition, actives largely listed as inhibitors | 300,000 compounds, 1.2% hits; active means well fitted inhibition curve with a large enough effect; inconclusive means small, poorly fitted or top-dose-only effect, or effect the other way; inactive means flat fitted curve, though single readings scatter; tested in HEK293 cells; note: % is set by controls: 0 for no effect and ±100 for the full control effect; nearly all actives have a fitted effect of over 50% in size; luciferase read-out
* hit, by the source's call; u = inconclusive; x = not tested or not shown; & = joins results of further samples; [ ] = dose if it differs, or a comment. Unless noted, calls come from the whole dose curve; as a rule, active means well fitted rising curve with a large enough effect; inconclusive means small, poorly fitted or top-dose-only effect; inactive means no such curve, though single readings can be large or run the other way. Potency is the fitted concentration of half-maximal effect.

SMILES	Marburg entry inh	Cruzain inh Det	SARS PLP yeast	2A StopGo	RE007 growth inh	NS1 function inh	Cruzain noTriton	LASV entry inh
O=C(CCc1nnc(C2CCCCC2)o1)N1CCN(Cc2ccccc2)CC1	0%[46.1 µM]	x	1%	21%	-8%	7%	x	21%
CC(NCc1ccco1)C(=O)N1CCc2ccccc2C1 (configuration not stated)	-25%	2.1%	2%	x	14%	-4%	3%	-19%
CC(C)C[C@H](NC(=O)OC(C)(C)C)c1n[nH]c(=S)n1N	9%	-3.9%	-3%	1%	25%	4%	1%	0%
C#CCOc1ccccc1/C=N/NC(=O)c1ccccc1OCc1ccccc1	x	x	-2%	18µM*	-10%	13%	x	x
CCOc1ccccc1NC(=O)CN(c1nccs1)S(=O)(=O)c1ccc(N)cc1	7%	-5.3%	6%	-5%	5%	1%	-4%	1%
Cc1ccc2nc(C(F)OC(F)(F)F)[nH]c2c1 (configuration not stated)	16%	6.4%	x	0%	6%	-6%	8%	-1%
CCOc1cc(C(C(=O)NCC2CCCO2)N(C(=O)Cn2nnc3ccccc32)c2ccc(NC(C)=O)cc2)ccc1O (configuration not stated)	6%[46.1 µM]	x	-1%	16%	2%	3%	x	x
O=C(Nc1cccnc1)/C(N=Nc1ccc(Cl)c(C(F)(F)F)c1)=C(\O)c1ccccc1	0%	-2.6%	-1%	-11%	10%	11%	8%	16%
CN(C)c1nc(C(=O)O)nc(N2CCOCC2)n1	4%[46.1 µM]	x	-1%	-11%	9%	0%	x	1%
O=C(NCCNC(=O)c1cnccn1)c1ccc(Cl)c(Cl)c1	5%[46.1 µM]	x	0%	8%	-2%	7%	x	14%
CCOc1ccccc1NC(=O)NCc1ccc2c(c1)OCO2	13%[46.1 µM]	x	0%	8%	10%	7%	x	29%[46.1 µM]
CCOC(=O)c1cc(-c2ccc(F)cc2)n(CC(=O)NC2CCCCCC2)c1C	x	-1.1%	x	4%	x	x	-12%	-22%[46.1 µM]
Cc1ccc(S(=O)(=O)N2CCOCC2)cc1C(=O)NCc1cn2ccsc2n1	0%	2.5%	3%	-16%	9%	8%	-5%	2%
Cc1oc2c(c(C)cc3oc(=O)c(CC(=O)N[C@@H](CC(C)C)C(=O)O)c(C)c32)c1C	-1%	x	0%	-1%	12%	19%	x	u
COC(=O)CC1C(=O)NCCN1C(=S)Nc1ccccc1Cl (configuration not stated)	u	x	0%	-15%	7%	-1%	x	u
Cc1c(Cl)cccc1NC(=O)CSc1nc(=O)n(CCN2CCOCC2)c2c1CCC2	x	-0.8%	x	-9%	x	x	-11%	-5%[46.1 µM]
CC(C)CC(NC(=O)C(CO)NC(=O)C1CCC(=O)N1)C(N)=O (configuration not stated)	u	x	0%	3%	-2%	x	x	-23%
CCOC(=O)C(NC(=O)C(Cc1ccc(N(CCCl)CCCl)cc1)NC(C)=O)C(C)C (configuration not stated)	-11%	x	0%	-9%	-10%	1%	x	7%
CCOC(=O)C(=O)C1=C(N2CCOCC2)/C(=C\c2ccc(F)cc2)CC1	0%[46.1 µM]	-9.9%	0%	-7%	-12%	-12%	9%	-10%[46.1 µM]
Cc1c(-c2cccc(Cl)c2)nc2ccccc2c1C(=O)OCC(=O)N(C)C1CCS(=O)(=O)C1 (configuration not stated)	-11%	x	-3%	-15%	-9%	x	x	6%
Oc1ccc(Br)cc1-c1ccn[nH]1	u	-5.7%	-64%	12%	x	-51%	-3%	9%
CCn1c(C)nc2cc(C(=O)NN=Cc3ccc([N+](=O)[O-])cc3)ccc21	-3%	x	2%	-21%	-20%	x	x	-10%
CCOc1ccccc1CNC(=O)CCCN1C(=O)CCn2nc(-c3cccn3C)cc21	x	-0.8%	x	-8%	x	x	u	-15%[46.1 µM]
Cc1c(Cc2ccccc2)c(=O)oc2cc(OCc3nn[nH]n3)ccc12	5%	-19%	-5%	-9%	15%	u	11%	6%
COC(=O)c1[nH]c2cc(C)ccc2c1NC(=O)CN1CCN(C(=O)c2ccco2)CC1	u	-2.3%	12%	x	-14%	-10%	-5%	-16%
COc1ccc(C(=O)c2ccccc2CN2C(=O)c3ccccc3C2=O)cc1	11%	x	x	12%	9%	x	x	3%[46.1 µM]
Cc1cc(NC(=O)CSc2nc(-c3ccco3)cc(C(F)(F)F)n2)no1	u	-3.9%	-12%	-18%	-5%	0%	20µM*	u
O=C(CSc1nc(-c2ccc(F)cc2)[nH]c1-c1ccc(F)cc1)Nc1ccc2c(c1)OCO2	u	-1.9%	x	u	x	x	-16%	u
CCCCOc1ccc(C(=O)Nc2cccc(-n3cnnn3)c2)cc1OC	x	x	-4%	-18%	-11%	15%	x	x
CC(=O)c1cccc(NC(=O)c2ccc3c(=O)n4c(nc3c2)CCCCC4)c1	-11%	x	0%	2%	2%	-6%	x	7%
COCCNC(=O)c1onc(CSc2cccc(Cl)c2)c1C(=O)O	x	4.3%	-2%	-6%	-13%	-11%	-6%	x
CC1(C)CC(=O)c2cc(-c3nc(-c4ccc(F)cc4)cs3)c(=O)[nH]c2C1	-22%[46.1 µM]	-1.9%	x	-18%	x	x	1%	-8%[46.1 µM]
CCOc1cc(CNC(=O)c2sc3ncnc(N(C)C4CCCCC4)c3c2C)ccc1OC	x	-6.6%	x	0%	x	x	u	u
CSc1nc2c([nH]c3ccccc32)c(=O)n1-c1ccc(C)cc1	x	-3.4%	x	-10%	x	x	-8%	-8%[46.1 µM]
Cc1ccc(NC(=O)CCNS(=O)(=O)c2cccc3nsnc23)cc1F	-7%[46.1 µM]	x	-3%	20%	1%	-11%	x	-8%[46.1 µM]
N#CCCN(Cc1cccs1)C(=O)Nc1ccc(F)cc1	x	x	-2%	-10%	-4%	9%	x	x
O=C(/C=C/c1ccc2c(c1)OCO2)NCc1cn2cc(Cl)ccc2n1	4%[46.1 µM]	x	-2%	17%	4%	2%	x	x
Cc1nc2ccccc2c2oc(C(=O)NCc3ccccn3)cc12	-19%	-0.7%	-2%	u	-13%	-34%	-1%	-10%
Cc1c(Cl)cccc1Nc1n[nH]c(=S)s1	8%	x	x	-3%	23%	x	x	14%[46.1 µM]
CCOc1ccc(Cl)cc1/C=N/NC(N)=O	x	x	0%	6%	12%	6%	x	x
CC(C)N1CCC(NC(=O)Nc2ccc3c(c2)OCO3)CC1	2%[46.1 µM]	x	-1%	29%	17%	6%	x	21%
COC(=O)N1CCN(c2ccc(Cl)c(Cl)c2)CC1	u	-4.6%	-17%	u	-9%	-40%	6%	u
Cc1cc(NC(=O)c2nn3cccnc3c2Cl)no1	-23%	-0.1%	20%	13%	4%	-2%	-6%	u
Cc1cccc(OCc2nnc(NC(=O)c3cccs3)s2)c1	1%	3.0%	-7%	-14%	-1%	-13%	13µM*	-3%
Cc1ccc(OC(=O)CN2C(=O)c3ccccc3C2=O)cc1C	20%[46.1 µM]	x	0%	-12%	-3%	-69%	x	24%[46.1 µM]
O=C(NCc1ccco1)/C(=C\c1ccco1)NC(=O)c1ccc(Br)o1	-16%	-9.1%	12%	17%	-19%	15%	-5%	-5%
CCC(=O)Nc1ccc(NC(=S)NC(=O)/C=C/c2ccccc2)cc1	u	-13%	-2%	u	-1%	22%	-2%	u
COc1ccc(NC(=O)COC(=O)C2CCC(C(C)(C)C)CC2)c([N+](=O)[O-])c1 (configuration not stated)	u	-7.2%	-20%	-8%	4%	13%	1%	-1%
C=C(C)CC1N(c2cccc(OC)c2)C(=O)[C@@H]2C(C(=O)O)[C@H]3C=C[C@@]12O3 (some centres not stated)	28%	1.4%	-2%	-20%	-19%	-5%	10%	4%
CCCCCCCCCn1c2c(c(=N)c3c1CCC3)CCCC2	u	x	-5%	10µM*	u	-60%	x	4.1µM*
COc1ccc(Cl)cc1S(=O)(=O)N1CCCC(C(=O)NCc2ccccc2)C1 (configuration not stated)	-28%	x	0%	-25%	-6%	1%	x	2%
Cc1nc(N)c(CC(Br)CBr)c(Cl)n1 (configuration not stated)	x	x	3%	-25%	5%	8%	x	x
CCCCOc1ccc(CNC(=O)c2ccc(NC(=O)N3CCSc4ncccc43)cc2)cc1	x	-12%	x	u	x	x	u	-29%[46.1 µM]
CN(CCCNC(=O)c1ccc(CS(=O)c2ccc(Br)cc2)o1)Cc1ccccc1 (configuration not stated)	x	x	0%	-10%	4%	-2%	x	x
CCc1nnc(NC(=O)CSc2nnc(CNc3ccc(F)cc3)n2C2CCCCC2)s1	-2%&27%	4.7%	0%	-16%	-10%	-3%	17%	-2%
CN(C)c1ccc(N2CN=C3SCC(=O)N3C2)cc1	-34%	4.7%	-11%	10%	u	4%	-10%	-18%
O=S(=O)(Nc1ccccc1O)c1ccc(Cl)nc1	-1%[46.1 µM]	x	1%	-4%	11%	2%	x	-24%[46.1 µM]
CN1CCN(C(CNC(=O)C(=O)Nc2ccccc2C#N)c2ccc3c(c2)OCO3)CC1 (configuration not stated)	x	-2.6%	x	-4%	x	x	-6%	-3%[46.1 µM]
O=c1[nH]c2cnn(-c3ccccc3)c2c(=O)n1O	u	x	x	-2%	-17%	x	x	7%
COc1ccc(NC(=O)NNC(=O)c2ccc3ccccc3c2O)cc1OC	-16%[46.1 µM]	x	-5%	17%	-4%	11%	x	10%[46.1 µM]
Following part.
SMILES	Marburg entry inh	Cruzain inh Det	SARS PLP yeast	2A StopGo	RE007 growth inh	NS1 function inh	Cruzain noTriton	LASV entry inh
COc1cc(/C=N/NC(=O)CCN2CCCCC2)ccc1O	18%[46.1 µM]	x	1%	0%	3%	7%	x	6%
O=[N+]([O-])c1ccccc1S(=O)(=O)N(CC1CO1)c1ccccc1 (configuration not stated)	9%[46.1 µM]	x	1%	18%	0%	9%	x	19%
O=C(NCc1ccco1)c1cccc(Br)c1	x	x	-3%	-1%	-1%	2%	x	x
Cc1ccc(NC(=O)Nc2cccc([N+](=O)[O-])c2)nc1	-2%[46.1 µM]	x	1%	38%[activator]	21%	x	x	0%

Source: PubChem
